# Source: PubChem BioAssay (NMMLSC)
# Bead autofluor – counter-screen for toxin protease inhibitors: compound fluorescence | compound autofluorescence counterscreen, microsphere flow cytometry; stronger effect = higher value | fluorescence intensity (test concentration not listed) | actives 3.1% (n = 360,000) | AID 624483;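 active = at least 3 SD above the mean of all compounds, about 16000 in these data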;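 note: 100 nL of 1 mM stock went into each well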
# * marks the source's active call; other numbers are inactive results. This is a subset; rates above refer to the full screens.
SMILES,Bead autofluor
CC1=C(C(=O)N(C)C)CC(CC(=O)NC2CCCCC2)C(=O)N1Cc1ccc(C(C)(C)C)cc1 (stereo unspecified),3564
CCOC(=O)c1cccc(C2=C(CNC(C)=O)[C@H]3CC[C@@H](C2)N3Cc2ccccc2)c1,3960
O=C(c1ccoc1)N1CCN(c2cc(-c3ccncc3)nc3cc(-c4cccc(Cl)c4)nn23)CC1,3851
C=CCN(CC=C)Cc1cc(=O)oc2cc(OC)ccc12,5705
CC1(CN2CCCC2)CCC(NC(=O)C(c2ccccc2)c2ccccc2)C(C)(C)O1 (stereo unspecified),11973
Cc1ccc2c(c1)sc1nncn12,3686
CCOC(=O)CCCCCC(=O)Nc1ccc2c(c1)C(=O)N([C@@H](C)CO)C[C@@H](C)[C@H](CN(C)C(=O)c1ccncc1)OCCCC[C@H](C)O2,3402
CCCS(=O)(=O)NC(=O)C1(C)CCN(C(=O)Cc2ccc(F)cc2)C1 (stereo unspecified),2802
ON=C1CCC2CCCCC2C1 (stereo unspecified),3813
Cc1ccc(S(=O)(=O)N2C[C@H]3N(C(=O)OC(C)C)N(C(=O)OC(C)C)C[C@H](OC(=O)NCC4CCCCC4)[C@@]3(O)C2)cc1,3751
CCOc1cc(OCC)cc(C(=O)N2CCC[C@@H]2C(=O)N2CCC[C@H]2C(=O)NCc2ccncc2)c1,5899
Cn1c(NCc2ccccc2F)nc2cc(-c3ccccc3)sc2c1=O,3987
CCOC(=O)c1ccc(NC(=S)P(=O)(c2ccccc2)c2ccccc2)cc1,3560
O=C(NCCC(F)(F)F)C1Cc2c(-c3ccc(Cl)cc3)ccnc2O1 (stereo unspecified),3001
CC(=O)NC(c1cccc(F)c1)c1nc(-c2cc3ccccc3o2)cs1 (stereo unspecified),3329
CCOC(=O)[C@]12Cc3ccccc3[C@H]1N(Cc1ccccc1)C(=O)c1cc(OC)ccc12,4180
CCc1nc2c(OCc3ccc(C(F)(F)F)cc3)cccn2c1N(C)C(=O)c1ccc(OC)cc1,2975
C[C@H](CO)N1C[C@H](C)[C@@H](CN(C)Cc2ccc(C(F)(F)F)cc2)OCc2cnnn2CCCC1=O,2946
O=C(Nc1cccc(Oc2ccccc2)c1)C1Cc2c(-c3ccccc3)ccnc2O1 (stereo unspecified),3008
CC(C)NC(=O)N(C)C[C@H]1OCc2cnnn2CCCC(=O)N([C@@H](C)CO)C[C@H]1C,3891
O=C(NC1CC1)c1ccc2sc([C@@H]3O[C@H](CO)[C@H](O)[C@H](O)[C@H]3O)nc2c1,3922
Cc1ccc(S(=O)(=O)NCC(=O)NCC(=O)NCCc2ccc(Cl)cc2)cc1C,2970
CSc1ccc(CN2CCC(C)(Oc3ccc(C(C)=O)cc3)C2)cc1 (stereo unspecified),4174
O=C(CSc1nc2ccccc2c(=O)n1-c1ccccc1)Nc1ccc2c(c1)CCC2,3689
C=CCNc1ncnc2c1ncn2[C@H]1CN(Cc2cccc3ccccc23)C[C@@H](CO)O1,3851
CCCC(=O)N1CCC1(C)C(=O)Nc1ccc2scnc2c1 (stereo unspecified),3945
CCCCCCn1cc(CN2CC(N(C)CCC)CS2(=O)=O)nn1 (stereo unspecified),5865
O=C1NCN(c2ccccc2)C12CCN(C(c1cccc3ccccc13)c1nnnn1C1CCCC1)CC2 (stereo unspecified),4292
COc1cccc(S(=O)(=O)N(C)C[C@H]2OCc3cnnn3CCCC(=O)N([C@@H](C)CO)C[C@@H]2C)c1,3704
CCCCCCN1C[C@H](n2cc(COC(=O)c3ccccc3)nn2)[C@@H](O)C[C@@H]1c1ccc(OC)cc1,3065
COc1cc(-c2coc3c(C(=O)NCc4ccc(C(F)(F)F)cc4)cccc23)ccc1O,3649
CCOc1ccc(NC(=O)COc2cccc3cccnc23)cc1S(=O)(=O)N1CCCC1,3737
CCNC(=O)C1(C)CCCN(C(=O)c2nc(C)oc2C)C1 (stereo unspecified),3021
COC1=CC23CCCN2CCc2cc4c(cc2C3C1O)OCO4 (stereo unspecified),6063
COc1ccc(N2CC(C(=O)Nc3nnc(SCC(=O)Nc4ccc(NC(C)=O)cc4)s3)CC2=O)cc1 (stereo unspecified),2840
Cc1ccc(OCCC(=O)OCC(=O)NC2CCCCC2)cc1,4476

# Sorted by length of the SMILES (ascending): part of the list above.
SMILES,Bead autofluor
Cc1ccc(OCCC(=O)OCC(=O)NC2CCCCC2)cc1,4476
COC1=CC23CCCN2CCc2cc4c(cc2C3C1O)OCO4 (stereo unspecified),6063
CCNC(=O)C1(C)CCCN(C(=O)c2nc(C)oc2C)C1 (stereo unspecified),3021
CCCCCCn1cc(CN2CC(N(C)CCC)CS2(=O)=O)nn1 (stereo unspecified),5865
CSc1ccc(CN2CCC(C)(Oc3ccc(C(C)=O)cc3)C2)cc1 (stereo unspecified),4174
Cc1ccc(S(=O)(=O)NCC(=O)NCC(=O)NCCc2ccc(Cl)cc2)cc1C,2970
COc1cc(-c2coc3c(C(=O)NCc4ccc(C(F)(F)F)cc4)cccc23)ccc1O,3649
C=CCNc1ncnc2c1ncn2[C@H]1CN(Cc2cccc3ccccc23)C[C@@H](CO)O1,3851
O=C1NCN(c2ccccc2)C12CCN(C(c1cccc3ccccc13)c1nnnn1C1CCCC1)CC2 (stereo unspecified),4292
COc1ccc(N2CC(C(=O)Nc3nnc(SCC(=O)Nc4ccc(NC(C)=O)cc4)s3)CC2=O)cc1 (stereo unspecified),2840
O=C(NC1CC1)c1ccc2sc([C@@H]3O[C@H](CO)[C@H](O)[C@H](O)[C@H]3O)nc2c1,3922
CCCCCCN1C[C@H](n2cc(COC(=O)c3ccccc3)nn2)[C@@H](O)C[C@@H]1c1ccc(OC)cc1,3065
COc1cccc(S(=O)(=O)N(C)C[C@H]2OCc3cnnn3CCCC(=O)N([C@@H](C)CO)C[C@@H]2C)c1,3704

# More entries follow.
SMILES,Bead autofluor
COc1ccc(S(=O)(=O)NC(=O)C2(C)CCN2C(=O)Cc2cc(C)cc(C)c2)cc1OC (stereo unspecified),3954
CCOC(=O)C1=CCN(S(=O)(=O)c2ccc(C)cc2)C1c1ccc(CC)cc1 (stereo unspecified),4676
CCOc1ccccc1N(CC(=O)Nc1ccccc1Br)S(=O)(=O)c1ccccc1,3450
COc1ccc(CCCNC(=O)C2(C)Cc3c(-c4ccc(C(N)=O)cc4)ccnc3O2)cc1 (stereo unspecified),3000
CN(C)c1ccc2c(=O)cc[nH]c2c1,6042
Cn1c(=O)c2c(-c3ccccc3)n(-c3ccccc3F)cc2n(C)c1=O,4408
COc1ccc(CCN2C(=O)CCC2(C)c2nnnn2-c2ccc3c(c2)OCCO3)cc1OC (stereo unspecified),5880
CCc1nnc(NS(=O)(=O)c2ccc(NC(=O)c3ccc([N+](=O)[O-])s3)cc2)s1,3760
CCOC(=O)N(C)C[C@H]1OCc2cn(nn2)CCCC(=O)N([C@H](C)CO)C[C@@H]1C,3788
O=C(Nc1ccc(OCCO)cc1)c1csc([C@@H]2O[C@H](CO)[C@H](O)[C@H](O)[C@H]2O)n1,3582
O=C(NCc1ccc(F)cc1)c1cc(C2CCCCN2C(=O)c2ccccn2)on1 (stereo unspecified),4417
CC1=C(C(=O)N2CCOCC2)CC(CC(=O)NCCc2ccccn2)C(=O)N1Cc1ccc(C(C)(C)C)cc1 (stereo unspecified),3331
CCOC(=O)[C@]12Cc3cc(C)ccc3[C@H]1N(CCC(=O)OC)C(=O)c1cc(OC)ccc12,5292
CC(=O)c1cccc(NC(=O)C2Cc3c(-c4cccc(F)c4)ccnc3O2)c1 (stereo unspecified),3598
Clc1ccc(-c2nc3ccc(Cl)cn3c2Cc2ccsc2)cc1,7114
CCCCCCCCN1C(=O)[C@H](CC(=O)N2CCCC2)C[C@@]2(C(=O)OCC)CCCC=C12,4440
CC[C@H](C)[C@@H]1NC(=O)[C@@H](CC(C)C)NC(=O)[C@H](C(C)C)NC(=O)[C@H]2CSSC[C@H](NC1=O)C(=O)N2,5944
C[C@H](CO)N1C[C@H](C)[C@H](CN(C)C(=O)Cc2cccnc2)Oc2ncc(Br)cc2C1=O,3526
O=C(CCl)NC1(C(=O)O)CCCC1,3372
CN1C(=O)CC2(C)C1=CCc1scnc12 (stereo unspecified),5782
COc1cccc(-c2ccc3c(c2)C2CC3CCN2C(=O)c2ccc(-c3ccccc3)cc2)c1 (stereo unspecified),3630
CCc1nc(CN2CCCC(C(=O)Nc3ccc(-c4cccc(OC)c4)cc3)C2)c(C)[nH]1 (stereo unspecified),3694
Cc1cc(F)cc(-c2cc(C(=O)NCc3ccccn3)[nH]n2)c1,3558
CCCCN(C)c1c(C)nc2ccc(C(=O)NCCc3c[nH]c4ccccc34)cn12,3934
O=C(Nc1ccc(Oc2ccccc2)cc1)c1ccc2nc([C@@H]3O[C@H](CO)[C@H](O)[C@H](O)[C@H]3O)[nH]c2c1,4006
CN(C)c1ccc(C(=N)Cc2ccc3ccccc3n2)cc1,10624
Cc1ccc([C@@]2(OC(=O)c3ccccc3)C(=O)N(C(=O)OC(C)(C)C)c3ccccc32)cc1,6013
COc1ccc(C(C)(NC(C)=O)c2nc(-c3cccc(NC(C)=O)c3)cs2)cc1 (stereo unspecified),3707
C[C@@H](c1ccccc1)N1C[C@@H](COCc2ccccc2)Oc2cc(N3CC[C@@H](O)C3)ccc2S1(=O)=O,5388
COCCN1C(=O)CCC1(C)c1nnnn1Cc1ccccc1 (stereo unspecified),5713
C[C@H](CO)N1C[C@H](C)[C@@H](CN(C)C(=O)Oc2cccc3ccccc23)OCc2cn(nn2)CCCC1=O,2909
CCCOc1ccc(/C=C/C(=O)N2CCN(C(=O)c3ccco3)CC2)cc1OC,3380
COc1ccc(OC)c(C(O)c2ncc(-c3ccccc3Cl)[nH]2)c1 (stereo unspecified),4024
CC1(C(=O)Nc2ccc(Cl)c(Cl)c2)CCN1C(=O)CC1CCCC1 (stereo unspecified),3914
CCOc1cc(C=NNC(=O)N(c2ccccc2)c2ccccc2)ccc1O,5883
COc1cccc(-c2cnc(C(O)c3c(C)cccc3C)[nH]2)c1 (stereo unspecified),4622
O=C(Nc1cccc(C(F)(F)F)c1)c1cccc2c(-c3cccnc3)coc12,3553
CCOC(=O)C1=CCN(S(=O)(=O)c2ccccc2F)C1c1ccccc1 (stereo unspecified),5424
CCOC(=O)[C@]12CCC=C1N(Cc1ccc(Cl)cc1Cl)C(=O)[C@H](CC(=O)N1CCC(c3ccccc3)CC1)C2,5358
CC(=O)NC(c1ccc(F)c(F)c1)c1nc(-c2cccc(C(F)(F)F)c2)cs1 (stereo unspecified),3493
O=C(Nc1cc(C(F)(F)F)ccc1N1CCOCC1)c1cccc(S(=O)(=O)N2CCOCC2)c1,3889
COc1cc(C(O)c2nc(-c3cccc(NC(C)=O)c3)cs2)ccc1F (stereo unspecified),3059
CC(=O)Nc1cncc(-c2ccccc2F)n1,3423
COc1cc(OC)c(NS(=O)(=O)c2cc(C(=O)NCCCN3CCOCC3)ccc2C)cc1Cl,3653
COC(=O)[C@]12CCCCC=C1N(Cc1ccc(Cl)cc1Cl)C(=O)[C@H](CC(=O)NCCC(C)C)C2,5657
O=C(CCN1C(=O)CC1c1ccco1)N1CCOCC1 (stereo unspecified),5883
COc1ccccc1C(=O)NCCN1CCC(n2c(=O)[nH]c3ccccc32)CC1,6283
CC1(C(=O)Nc2ccc3c(c2)OCCO3)CCN1C(=O)c1ccccc1CCc1ccccc1 (stereo unspecified),3575
CC(C)C(=O)N1CCC1(C)C(=O)NS(=O)(=O)c1cccs1 (stereo unspecified),3564
CC1=C(C(=O)N(C(C)C)C(C)C)CC(CC(=O)NC(c2ccccc2)c2ccccc2)C(=O)N1CCC1=CCCCC1 (stereo unspecified),5306
CC(C)CCN1C(=O)c2ccccc2C1c1nnnn1C(C)C (stereo unspecified),5866
CCCCC1Cc2[nH]c(=S)[nH]c(=O)c2C(c2ccc(C(C)C)cc2)O1 (stereo unspecified),5272
CN(Cc1ccccc1)C(=O)c1cnc(Cc2c[nH]c3ccccc23)c(I)c1,3834
O=C1C2C3C=CC(CC3)C2C(=O)N1c1ccc(Br)cc1 (stereo unspecified),2817
Cc1cc2c(=O)cc(-c3ccccc3)oc2c(C(=O)O)c1C,5243
CCCCOCCCNC(=O)C[C@@H]1C[C@@]2(C(=O)OCC)CCCC=C2N(Cc2ccco2)C1=O,5890
COc1ccc(-c2ccc(C(=O)NCc3ccc(C(F)(F)F)cc3)c3occc23)c(C)c1,4107
Brc1ccc(-c2nc3c4ccccc4ccn3c2Cc2ccccc2)cc1,3930
CC(C)c1ccc(CC(=O)N2CCC2(C)C(=O)NCc2cccc3ccccc23)cc1 (stereo unspecified),2850
O=C(NCc1ccccc1)c1cc(C2CCCCN2S(=O)(=O)c2cccs2)on1 (stereo unspecified),3525

# Other compounds follow:
SMILES,Bead autofluor
NC(COCc1ccccc1)c1csc(Nc2ccccn2)n1 (stereo unspecified),4102
CCCc1c(-c2ccccc2F)ncn1CCc1ccccc1OC,6088
COc1cc(-c2cc(=O)c3c(O)cc(O)cc3o2)cc(OC)c1OC,4893
CCNC(=O)C1(C)CCCN(Cc2noc(-c3ccccc3OC)n2)C1 (stereo unspecified),3696
COc1ccccc1CN1C(=O)C(C)ON=C1c1ccccc1F (stereo unspecified),4865
OC[C@@H]1CN(Cc2ccccc2)C[C@H](n2cnc3c(NCc4ccco4)ncnc32)O1,3647
CCCCCC(=O)N1C[C@H](O)[C@@H](n2cc(-c3ccc(F)cc3)nn2)C[C@@H]1c1ccccc1,2917
CC(C)(C)c1ccc(CC(=O)N2CCC2(C)C(=O)NS(=O)(=O)c2ccc(F)cc2F)cc1 (stereo unspecified),4453
C=Cc1ccc(Cn2c(C)c(C(=O)NCc3ccc(C#N)cc3)sc2=O)cc1,5417
CCOC(=O)c1cc2ccccc2n1C1CCN(Cc2ccccc2)CC1,5336
O=C(OCc1ccccc1)N1CCC2CC1c1ccc(N3CCNCC3)cc12 (stereo unspecified),3207
C[C@H](CO)N1C[C@H](C)[C@@H](CN(C)S(=O)(=O)c2cn(C)cn2)Oc2cc(Br)ccc2S1(=O)=O,3712
COc1ccc(CN2C(=O)c3ccccc3C2c2nnnn2C(C)C)cc1 (stereo unspecified),4112
